Vaccinia stage – Vaccinia orthopox stage-specific inhibition; Vaccinia-infected cells, mCherry/Venus stage reporter fluorescence; hits give low values; some inactives read as strong as hits; activity change (mCherry), % (no concentration beside the values); 89,000 compounds, 0.01% hits; AID 1053133;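 active = mCherry past -33% and 40 or more points under the early reporter, replicates agreeing; inconclusive = past -33% without that gap or agreement; tested in A549 cells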;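 also: scaled between vehicle wells and reference inhibitor wells; 23 nL library stock went into each well; one replicate is shown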
Vaccinia stage Venus – recorded beside Vaccinia stage, whose call it bears; activity change (Venus), %; measured here: Venus reporter, other viral stage;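 negative = less Venus signal; first of two replicates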
Numbers without * were called inactive; ? = inconclusive; . = no result given. An excerpt; count on the stated rates, not on these rows.

Preview, 4 compounds:
SMILES	Vaccinia stage	Vaccinia stage Venus
C[C@@H]1CN([C@H](C)CO)C(=O)c2cc(C#Cc3ccccn3)cnc2O[C@@H]1CN(C)CC1CCOCC1	3	13
C[C@@H]1CN([C@H](C)CO)C(=O)c2cc(C#Cc3ccccc3)cnc2O[C@@H]1CN(C)C(=O)c1ccccn1	2	4
C[C@@H]1CCCCO[C@H](CN(C)Cc2ccncc2)[C@@H](C)CN([C@H](C)CO)C(=O)c2cc(NC(=O)CCC(F)(F)F)ccc2O1	0	0
CC(=O)N[C@H]1C=C[C@H](CC(=O)NCC2CCCCC2)O[C@@H]1CO	8	8

The list itself, previewed entries included:
SMILES	Vaccinia stage	Vaccinia stage Venus
C[C@@H]1CN([C@H](C)CO)C(=O)c2cc(C#Cc3ccccn3)cnc2O[C@@H]1CN(C)CC1CCOCC1	3	13
C[C@@H]1CN([C@H](C)CO)C(=O)c2cc(C#Cc3ccccc3)cnc2O[C@@H]1CN(C)C(=O)c1ccccn1	2	4
C[C@@H]1CCCCO[C@H](CN(C)Cc2ccncc2)[C@@H](C)CN([C@H](C)CO)C(=O)c2cc(NC(=O)CCC(F)(F)F)ccc2O1	0	0
CC(=O)N[C@H]1C=C[C@H](CC(=O)NCC2CCCCC2)O[C@@H]1CO	8	8
CCS(=O)(=O)NCC[C@@H]1CC[C@@H](NC(=O)C2CCOCC2)[C@H](CO)O1	11	2
N#Cc1ccc(-c2ccc([C@H]3[C@H]4CN(C(=O)C5CCCC5)CC(=O)N4[C@H]3CO)cc2)cc1	?	.
C[C@H](CO)N1C[C@H](C)[C@@H](CN(C)Cc2ccc(Cl)c(Cl)c2)Oc2ccc(NC(=O)Cc3ccccc3)cc2C1=O	?	.
CO[C@H]1CN(C)C(=O)c2cc(NC(=O)c3ccccc3)ccc2OC[C@H](C)N(C)C[C@@H]1C	6	-1
CCNC(=O)C[C@@H]1CC[C@H]2[C@@H](COc3ccc(NC(=O)c4cc(C)on4)cc3C(=O)N2C)O1	-5	-4
O=C(C1CCC1)N1CC2(C1)[C@@H](c1ccccc1)[C@@H](CO)N2C(=O)c1ccccn1	10	8
COc1ccc(CN(C)C[C@@H]2Oc3c(NC(=O)C4CCCCC4)cccc3C(=O)N([C@@H](C)CO)C[C@@H]2C)cc1	18	15
COc1ccc(NC(=O)Nc2ccc3c(c2)[C@H]2C[C@@H](CC(=O)N4CCN(C)CC4)O[C@H](CO)[C@H]2O3)cc1	0	1

A second format for some results above.
SMILES,Vaccinia stage,Vaccinia stage Venus
O=C(C1CCC1)N1CC2(C1)[C@@H](c1ccccc1)[C@@H](CO)N2C(=O)c1ccccn1,10,8
COc1ccc(CN(C)C[C@@H]2Oc3c(NC(=O)C4CCCCC4)cccc3C(=O)N([C@@H](C)CO)C[C@@H]2C)cc1,18,15
COc1ccc(NC(=O)Nc2ccc3c(c2)[C@H]2C[C@@H](CC(=O)N4CCN(C)CC4)O[C@H](CO)[C@H]2O3)cc1,0,1

Later entries
SMILES	Vaccinia stage	Vaccinia stage Venus
CO[C@H]1CC[C@H]2CCN(C)C(=O)[C@@H](C)[C@H](OC)CN(C)C(=O)c3cccc(C#N)c3OC[C@H]1O2	16	9
CN1c2ccc(C3=CCCCC3)cc2[C@@H]2[C@@H](CCN2C(=O)Nc2ccccc2F)[C@@H]1CO	-3	-6
COc1ccc(S(=O)(=O)N(C)C[C@@H]2Oc3ccc(NS(=O)(=O)c4ccc(Cl)cc4)cc3C(=O)N([C@@H](C)CO)C[C@@H]2C)cc1	3	-2
CC=Cc1ccc2n(c1=O)C[C@H]1[C@H](CO)[C@@H](C(=O)NCCCN(C)C)[C@@H]2N1C(=O)c1ccccc1F (mixture of isomers)	9	15
C[C@H](CO)N1C[C@H](C)[C@H](CN(C)S(=O)(=O)c2cn(C)cn2)OCCCC[C@H](C)Oc2ccc(NS(=O)(=O)c3ccc(F)cc3)cc2C1=O	12	11
C[C@@H]1CN([C@@H](C)CO)C(=O)c2cc(-c3cccc(C(=O)N(C)C)c3)cnc2O[C@@H]1CN(C)C(=O)Cc1ccccn1	4	2
C[C@@H]1CN([C@@H](C)CO)C(=O)c2cccc(NS(=O)(=O)c3ccc(F)cc3)c2O[C@H]1CN(C)C(=O)NC1CCCCC1	10	7
C[C@H](CO)N1C[C@H](C)[C@H](CN(C)C(=O)Nc2ccc(C(F)(F)F)cc2)Oc2ccc(NC(=O)NC3CCCCC3)cc2CC1=O	-13	-7
CCN1[C@@H]2Cn3c(ccc(C4=CCCCC4)c3=O)[C@H]1[C@@H](C(=O)NCc1ccccn1)[C@@H]2CO	2	7
CCC(=O)N[C@H]1C[C@@H]2O[C@@H](CO)CC[C@@H]2O[C@@H]1CCc1ccc(C#CCc2ccccc2)cc1	-3	-2
C=C/C=C/[C@@H]1C(=C)CN2[C@H]1[C@H](Cc1ccccc1)OC(=O)C21CCCC1	6	27
C[C@@H]1CN([C@@H](C)CO)C(=O)c2cc(NC(=O)Nc3ccc(C(F)(F)F)cc3)ccc2O[C@H]1CN(C)Cc1ccc(C(F)(F)F)cc1	-28	-16
O=C1O[C@@H](c2ccccc2)[C@@H](c2ccccc2)N2[C@@H](c3ccc(O)cc3)[C@]3(C(=O)Nc4ccccc43)[C@@H](C(=O)N3CCCCCCC3)[C@H]12	-18	-2
Cc1cccc(S(=O)(=O)N2CCCCN3[C@@H](CO)[C@@H](c4ccc(-c5ccccc5)cc4)[C@@H]3C2)c1	?	.
CNC[C@H]1Oc2ccc(NC(=O)c3ccncc3)cc2C(=O)N([C@H](C)CO)C[C@H]1C	8	4
COc1ccc(NC(=O)N(C)C[C@@H]2Oc3ccc(NC(=O)CCN4CCOCC4)cc3CC(=O)N([C@@H](C)CO)C[C@H]2C)cc1	3	4
Cc1noc(C)c1S(=O)(=O)Nc1ccc2c(c1)C(=O)N([C@H](C)CO)C[C@H](C)[C@H](CN(C)S(C)(=O)=O)O2	16	4
C[C@@H]1CN([C@@H](C)CO)C(=O)Cc2cc(NC(=O)C3CC3)ccc2O[C@@H]1CN(C)Cc1ccc(C(=O)O)cc1	8	10
COc1ccc(C#Cc2cnc3c(c2)C(=O)N([C@H](C)CO)C[C@H](C)[C@@H](CN(C)C(=O)CN(C)C)O3)cc1	-8	0
CN(C)CC(=O)N1CC2(C1)[C@H](c1ccccc1)[C@H](CO)N2C(=O)C1CCC1	1	6
CS(=O)(=O)N1[C@@H](C#N)[C@H](c2ccc(C#CC3CC3)cc2)[C@@H]1CO	9	7
COc1ccc(NC(=O)Nc2ccc3c(c2)CC(=O)N([C@H](C)CO)C[C@@H](C)[C@H](CN(C)Cc2ccc(Oc4ccccc4)cc2)O3)cc1	-27	-15
C[C@H]1CN([C@@H](C)CO)C(=O)c2cccc(NC(=O)C3CCOCC3)c2O[C@@H]1CN(C)C(=O)Nc1ccc(C(F)(F)F)cc1	36	19
COc1ccc(NC(=O)Nc2cccc3c2O[C@@H](CN(C)Cc2ccc(-c4ccccc4)cc2)[C@H](C)CN([C@H](C)CO)C3=O)cc1	13	13
COCC(=O)N1[C@@H]2CN(C(=O)Nc3ccccc3Cl)c3ccccc3[C@@H]2[C@@H]1CO	17	10
CC(=O)N(C)C[C@@H]1Oc2cc(C#CC3CCCC3)ccc2S(=O)(=O)N([C@H](C)CO)C[C@H]1C	-19	-18
O=C(NC1CCC1)[C@H]1[C@H](CO)[C@H]2Cn3c(ccc(-c4cccc(F)c4)c3=O)[C@@H]1N2Cc1cocn1	6	12
C[C@@H]1CN([C@H](C)CO)C(=O)c2cc(-c3ccc(C#N)cc3)cnc2O[C@@H]1CN(C)CC1CCCC1	1	-3
O=C(C[C@@H]1C[C@@H]2c3cc(NC(=O)c4ccc5c(c4)OCO5)ccc3O[C@@H]2[C@H](CO)O1)NC1CCCCC1	5	11
CC(=O)N1[C@@H](CO)[C@@H](c2ccccc2)[C@@H]1CN(C(=O)c1cccc(F)c1)C(C)C	15	9
COCC(=O)N1CCCCN2[C@H](CO)[C@H](c3ccc(C#Cc4ccccc4)cc3)[C@@H]2C1	-10	-14
Cc1ccc(S(=O)(=O)Nc2cccc3c2O[C@H](CN(C)Cc2ccncc2)[C@@H](C)CN([C@H](C)CO)C3=O)cc1	13	5
CC(C)NC(=O)N(C)C[C@H]1OCCCC[C@@H](C)Oc2ccc(N(C)C)cc2C(=O)N([C@H](C)CO)C[C@H]1C	-6	-12
C[C@@H]1CN([C@@H](C)CO)C(=O)Cc2cc(NC(=O)CCCN(C)C)ccc2O[C@H]1CN(C)S(C)(=O)=O	5	10
C[C@@H]1CN([C@@H](C)CO)C(=O)c2cc(N(C)C)ccc2O[C@@H](C)CCCCO[C@H]1CN(C)C(=O)CCCN(C)C	7	7
COc1cccc(NC(=O)N(C)C[C@H]2Oc3cc(-c4cccc(C(=O)N(C)C)c4)ccc3S(=O)(=O)N([C@@H](C)CO)C[C@H]2C)c1	0	3
O=C(C1CCCCC1)N1CC(=O)N2[C@H](C1)[C@@H](c1ccc(C#Cc3cccc(F)c3)cc1)[C@@H]2CO	?	.
C[C@@H]1CN([C@@H](C)CO)C(=O)Cc2cc(NC(=O)NC3CCCCC3)ccc2O[C@H]1CN(C)C(=O)Nc1ccc(F)cc1	2	2
CCCC#Cc1cnc2c(c1)C(=O)N([C@H](C)CO)C[C@@H](C)[C@@H](CN(C)S(=O)(=O)c1cccc(OC)c1)O2	-29	-25
Cc1noc(C)c1NC(=O)N(C)C[C@@H]1Oc2c(NS(=O)(=O)c3ccccc3)cccc2C(=O)N([C@H](C)CO)C[C@H]1C	18	20
C[C@H](CO)N1C[C@H](C)[C@H](CN(C)S(=O)(=O)c2cn(C)cn2)Oc2cc(C3=CCCCC3)ccc2S1(=O)=O	-24	-23
C[C@H]1CN([C@@H](C)CO)C(=O)Cc2cc(NC(=O)Cc3cn(C)c4ccccc34)ccc2O[C@@H]1CN(C)S(=O)(=O)c1ccccc1	8	12
COc1ccc2c3c(n(C)c2c1)[C@H](CO)N(Cc1ccc(Cl)cc1)CC31CCN(CC2CC2)CC1	?	.
CC(C)CC#Cc1ccc2c(c1)O[C@H](CN(C)C(=O)c1ccccc1F)[C@@H](C)CN([C@H](C)CO)S2(=O)=O	-21	-18
COc1ccc(NC(=O)N(C)C[C@@H]2OCCCC[C@H](C)Oc3ccc(NC(=O)CCCN(C)C)cc3C(=O)N([C@@H](C)CO)C[C@H]2C)cc1	28	12
C[C@H]1CN([C@@H](C)CO)C(=O)Cc2cc(NS(=O)(=O)c3ccccc3)ccc2O[C@@H]1CN(C)CC1CC1	1	-3
C[C@@H]1CCCCO[C@H](CN(C)CC2CCCCC2)[C@H](C)CN([C@@H](C)CO)C(=O)c2cc(NC(=O)CCCCCC(=O)Nc3ccccc3N)ccc2O1	17	12
O=C(C[C@@H]1C=C[C@@H](NC(=O)Cc2ccccn2)[C@@H](CO)O1)NCCc1ccncc1	7	8
C[C@H](NC(=O)C[C@@H]1C[C@H]2c3cc(NC(=O)CN(C)C)ccc3O[C@H]2[C@@H](CO)O1)c1ccccc1	12	14
O=C(C1CCOCC1)N1CC(=O)N2[C@@H](CO)[C@H](c3ccc(-c4ccccc4F)cc3)[C@@H]2C1	11	-1
C[C@@H]1CN([C@H](C)CO)C(=O)c2c(c3ccccc3n2C)-c2ccccc2CO[C@@H]1CN(C)C(=O)[C@@H](Cc1ccccc1)N(C)C	?	.
O=C(NC1CCCCC1)N[C@@H]1C=C[C@H](CC(=O)N2CCOCC2)O[C@@H]1CO	5	8
C[C@@H]1CN([C@H](C)CO)C(=O)c2cc(NC(=O)CCN3CCOCC3)ccc2O[C@H]1CN(C)Cc1ccncc1	19	3
CCCN(C)C[C@H]1Oc2ncc(-c3ccccc3OC)cc2C(=O)N([C@H](C)CO)C[C@@H]1C	-5	-7
COCCN(C[C@@H]1[C@@H](c2ccccc2)[C@H](CO)N1C(C)=O)C(=O)c1ccncc1	7	9
C[C@H](CO)N1C[C@H](C)[C@@H](CN(C)C(=O)C2CC2)Oc2ncc(C#Cc3ccccc3F)cc2C1=O	25	8
O=C(C[C@@H]1CC[C@H](NC(=O)c2ccccc2)[C@H](CO)O1)NCc1ccncn1	6	5
C[C@@H]1CN([C@H](C)CO)C(=O)CCCn2cc(nn2)CO[C@H]1CN(C)C(=O)Nc1ccc(C(F)(F)F)cc1	6	4
C[C@H](CO)N1C[C@H](C)[C@H](CN(C)Cc2ccc(-c3ccccc3)cc2)Oc2c(NC(=O)Nc3ccc(F)cc3)cccc2C1=O	?	.
COc1ccc(COC[C@]23Oc4ccccc4[C@H]([C@H]2COC(=O)c2ccccc2)N(C(=O)CC(C)=O)C(=O)N3C)cc1	2	-1

(more compounds)
SMILES	Vaccinia stage	Vaccinia stage Venus
COc1ccc2c3c(n(C)c2c1)[C@@H](CO)N(C)CC31CN(C(=O)c2ccc3c(c2)OCO3)C1	6	1
Cc1ccc(F)cc1S(=O)(=O)N[C@@H]1CCN(Cc2ccc3[nH]ccc3c2)C1	-11	-15
C[C@@H]1CCCCO[C@@H](CN(C)Cc2ccncc2)[C@@H](C)CN([C@H](C)CO)C(=O)c2cc(NS(=O)(=O)c3cn(C)cn3)ccc2O1	20	8
C[C@H]1CN([C@@H](C)CO)C(=O)Cc2cc(N(C)C)ccc2O[C@@H]1CN(C)C(=O)Nc1ccccc1	15	11
O=C(Nc1ccccc1)N1CC(=O)N2[C@@H](CO)[C@@H](c3ccc(C#CC4CC4)cc3)[C@@H]2C1	-20	-9
COc1ccc(C#Cc2ccc3c(c2)[C@@H]2[C@@H](CCN2C(=O)C2CCC2)[C@H](CO)N3)cc1	?	.
CCCNC(=O)[C@H]1[C@H](CO)[C@H]2Cn3c(ccc(-c4ccc(OC)cc4)c3=O)[C@H]2N1CC	-4	1

Assay outcomes as filed in PubChem BioAssay.
